Assay outcomes: PubChem BioAssay, National Center for Advancing Translational Sciences (NCATS)
A647 fluor – qHTS Assay for Spectroscopic Profiling in A647 Spectral Region; Compound fluorescence, A647 channel (570/671 nm), Tris buffer; max dye-equivalent concentration, M; 59,000 tested, under 10 active; AID 592, 2007; active means above 1 µM dye equivalent; inconclusive means 0.1 to 1 µM; inactive means 0.1 µM or less;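 note: values scaled relative to a standard on each plate; highest value over a series up to 38 µM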
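Each compound's intrinsic fluorescence at 570 nm excitation and 671 nm emission is measured across its concentration series in 100 mM Tris, pH 8.0, after 15 min at room temperature, and reported relative to an A647 curve.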
AID923 – qHTS Assay for Allosteric/Competitive Inhibitors of Caspase-1: Spectroscopic Profiling in AFC Spectral Region; compound fluorescence, AFC spectral region (405/520 nm); almost no hit is shown here; Potency, µM (highest dose often 57.5 µM), for the others: at the highest dose fluorescence increase, most hits filed as activators; actives 1.1% (n = 75,000); AID 923, 2007; active = well fitted activation curve with a large enough effect; inconclusive = small, poorly fitted or top-dose-only effect;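 note: potency is the fitted concentration of half-maximal effect; 0% is about no effect; scaled to a free AFC standard on each plate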
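Titrations up to 57 uM read every 20 sec for 3 min (405/520 nm) with 50 nM caspase 1 and 5 uM Ac-WEHD-AFC, pH 7.5 HEPES buffer. Fluorescence-vs-time intercept gave baseline, scaled against on-plate AFC standard.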
Resorufin autofl – qHTS Assay for Spectroscopic Profiling in Resorufin Spectral Region. actives 0.04% (n = 59,000). max dye-equivalent concentration, M. AID 588, 2007. Compound fluorescence, resorufin region 547/598 nm, buffer; stronger effect = higher value; active = above 10 nM dye equivalent; inconclusive = 1 to 10 nM; inactive = 1 nM or less; a few of its hits are not listed in these tables; note: highest value over a series up to 38 µM
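Intrinsic fluorescence profiled in the resorufin window (ex 547 nm, em 598 nm) after 15 min at room temperature in pH 8.0 Tris buffer (100 mM); responses normalized against a six-point resorufin standard series as dye-equivalent concentration.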
TSHR ag – qHTS Assay for Agonists of the Thyroid Stimulating Hormone Receptor | actives 0.48% (n = 73,000) | AID 926, 2007 | Potency, µM (doses to about 57.1 µM), for inactives: at the top dose activation, hits mostly activators | HEK293-CNG-TSHR cells (CNG channel as cAMP sensor), membrane potential dye, cAMP; active = well fitted activation curve of enough size with the parental cells flat; inconclusive = any curve in the parental cells; inactive = parental cells flat and receptor cells flat or falling; note: potency is the fitted concentration of half-maximal effect; % of control where 0% means no effect; weak receptor curves with flat parental cells got no call and are not listed
Target sequence (P16473 whole entry, looked up): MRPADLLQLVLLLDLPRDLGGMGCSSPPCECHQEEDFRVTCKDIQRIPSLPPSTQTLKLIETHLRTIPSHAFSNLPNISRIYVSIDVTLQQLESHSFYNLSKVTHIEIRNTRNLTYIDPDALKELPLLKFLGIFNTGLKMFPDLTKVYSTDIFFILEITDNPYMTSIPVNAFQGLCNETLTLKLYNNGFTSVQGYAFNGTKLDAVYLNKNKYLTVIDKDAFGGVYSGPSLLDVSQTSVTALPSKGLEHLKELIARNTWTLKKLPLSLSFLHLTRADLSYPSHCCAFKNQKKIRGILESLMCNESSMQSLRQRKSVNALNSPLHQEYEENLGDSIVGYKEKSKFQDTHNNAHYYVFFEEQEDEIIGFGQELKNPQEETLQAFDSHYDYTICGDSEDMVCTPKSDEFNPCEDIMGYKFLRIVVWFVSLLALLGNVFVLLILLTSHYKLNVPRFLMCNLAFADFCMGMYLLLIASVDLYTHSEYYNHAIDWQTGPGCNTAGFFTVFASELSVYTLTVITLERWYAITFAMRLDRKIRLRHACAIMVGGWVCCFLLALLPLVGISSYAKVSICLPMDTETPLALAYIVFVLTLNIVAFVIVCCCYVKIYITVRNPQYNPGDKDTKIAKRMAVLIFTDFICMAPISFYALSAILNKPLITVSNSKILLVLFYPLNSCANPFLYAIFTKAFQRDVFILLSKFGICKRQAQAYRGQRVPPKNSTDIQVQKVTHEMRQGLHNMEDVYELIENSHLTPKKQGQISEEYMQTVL
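cAMP rise detected as CNG-channel membrane depolarization by fluorescent dye (emission 590 nm), 30 min after compound, following 60 min dye loading containing 100 uM RO 20-1724 at room temperature. Cells: TSHR/CNG HEK 293, with parental CNG HEK 293 as control.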
A488 autofl – qHTS Assay for Spectroscopic Profiling in A488 Spectral Region; compound autofluorescence, A488 spectral region, dye equivalency; stronger effect = higher value; max dye equivalency, M; actives 0.1% (n = 59,000); AID 591, 2007; active = above 10 nM dye equivalent; inconclusive = 1 to 10 nM; inactive = 1 nM or less; about half of its hits are not listed in these tables;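 note: highest value over a series up to 38 µM; compound alone in buffer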
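Spectroscopic profiling in the A488 region: compounds in pH 8.0 Tris (100 mM), 15 min RT, CCD imaging with 480 nm excitation and 540 nm emission; responses normalized against A488 dye standards.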
The depositor's hits bear a star; i = inactive; ? = inconclusive; . = no result given; & = joins results of further samples; [ ] = another dose, or the depositor's remark.

structure	A647 fluor	AID923	Resorufin autofl	TSHR ag	A488 autofl
CC(=O)c1c(C)[nH]c(C(=O)N2CCN(C(=O)c3ccco3)CC2)c1C	1.05e-08	-1.6%	i	-3.1%	i
O=C1CCN(Cc2nnnn2CC2CCCO2)c2ccccc2N1 (stereo not given)	3e-09	1.2%	i	-2.0%	i
COc1c(S(=O)(=O)n2nc(C)cc2C)ccc(Cl)c1Cl	.	1.2%	.	-20.4%	.
FC(F)(F)c1cc(-c2ccco2)nc(N2CCOCC2)n1	1.7e-09	0.9%	i	18.0%	i
Cc1cccc(NC(=O)C2CCCN(S(=O)(=O)c3cccc4cccnc34)C2)c1 (stereo not given)	.	0.8%	.	8.0%	.
CN(C)C(=O)c1ccc(-c2cc(NCc3ccccc3)ncn2)cc1	1e-09	1.3%	i	5.9%	i
COCCN1C(=O)C(=O)/C(=C(/O)c2cccc(S(=O)(=O)N(C)C)c2)C12C(=O)N(C)c1ccccc12 (stereo not given)	6.5e-09	-0.8%	i	-4.8%	i
Cc1ncc(CSC(=N)N)n1Cc1ccccc1	5.76e-08	-1.6%[11.5 µM]	i	-0.4%[11.4 µM]	i
CC1(C)CC(N2CCC(=O)N(C3CC(C)(C)NC(C)(C)C3)C2)CC(C)(C)N1	.	1.5%	.	1.7%	.
CCCOc1cc(C)c(S(=O)(=O)N2CCN(C)CC2)cc1C	2.56e-08	-0.6%	i	?	i
CC(C)CCNc1ncnc2c1nnn2Cc1ccccc1Cl	1e-09	1.0%	i	?	i
O=C(CC1Nc2ccccc2NC1=O)c1ccccc1 (stereo not given)	.	11.2%	.	-20.2%	.
Cc1noc(C)c1S(=O)(=O)N1CCC(C(=O)N2CCN(C(=O)c3ccco3)CC2)CC1	5.9e-09	-1.9%	i	?	i
CCCS(=O)(=O)c1c(S(=O)(=O)CCC)c2c(N)cccn2c1C(=O)c1ccc(F)cc1	3.99e-08	12.5%	i	-22.3%	i
COc1ccccc1CNC(=O)C1CCCN(S(C)(=O)=O)C1 (stereo not given)	5.6e-09	-0.8%	i	-5.8%	i
Nc1c(Br)cc(Br)c(N2CCCC2=O)c1Br	.	7.6%	.	?	.
CC(=O)Nc1ccc(S(=O)(=O)N2C3CCCC2CC(NC(=O)C2CCCCC2)C3)cc1 (stereo not given)	1.32e-08	-0.7%	i	2.2%	i
CCOC(=O)c1c(NC(=O)c2cccs2)sc2c1CCN(C(=O)OCC)C2	.	13.7%	.	16.0%	.
Cc1ccc2cc3cc(C(=O)N(C)C4CCCCC4)oc3nc2c1	9.7e-09	0.4%	i	14.2%	i
O=C(Nc1ccc(N2C(=O)C3C4C=CC(C4)C3C2=O)cc1)Nc1cccnc1 (stereo not given)	1e-09	-0.1%	i	-2.1%	i
CC(=O)NC(CCS(C)(=O)=O)C(=O)Nc1nc(C)cs1 (stereo not given)	5.32e-08	0.4%	i	3.0%	i
CCC1SC2=NC(C)=C(C(=O)OC)C(c3ccc(C(=O)OC)cc3)N2C1=O (stereo not given)	.	3.3%	.	?	.
O=C(O)c1ccccc1COc1ccccc1Cl	8.2e-09	-2.1%	i	28.3%	i
COc1ccc(OC)c(-c2ccccc2/C=N/NS(=O)(=O)c2ccc(C)cc2)c1	.	-2.7%[11.5 µM]	.	3.2%[11.4 µM]	.
COCC(=O)N1CCC2(CC1)CN(Cc1cc(C(F)(F)F)cc(C(F)(F)F)c1)C2	1.06e-08	-0.5%	i	-0.6%	i
O=c1cnc2cncnc2n1Cc1ccccc1	2.1e-08	2.6%	i	25.1µM*	i
Cc1ccc(C(=O)CSc2nnc(-c3ccccc3)n2-c2ccccc2)o1	2.14e-08	0.5%	i	16.1%	i
O=C(O)c1ccc(-c2ccccc2Cl)o1	1.6e-09	0.7%	i	9.7%	i
Cc1nn(-c2ccccc2)c2sc(C(=O)OCN3C(=O)c4ccccc4C3=O)cc12	.	1.5%	.	3.9%	.
CC(NC(=O)c1ccccc1NC(=O)c1ccco1)C(=O)O (stereo not given)	1e-09	0.5%	i	0.4%	i

Continued:
structure	A647 fluor	AID923	Resorufin autofl	TSHR ag	A488 autofl
CCOC(=O)CC(=O)CSc1[nH]c(=O)cc(C)c1C#N	1.4e-09	.	i	.	i
COCc1nnc(NC(=O)c2ccco2)s1	6e-09	-1.3%	i	9.9%	i
CCOC(=O)C1CCN(c2c(NCCCN(CC)Cc3ccccc3)c(=O)c2=O)CC1	4.92e-08	-0.2%	i	-1.4%	i
CCCCCC(=O)Nc1cccc(-c2nc3ncccc3o2)c1	1.5e-09	-2.1%	i	7.6%	i
COc1cccc(C2CC(c3cccc(Br)c3)n3nc(N)nc3N2)c1 (stereo not given)	.	2.6%	.	-5.2%	.
Cc1cc(Nc2ncc(Cl)cc2Cl)n[nH]1	1.59e-08	-2.0%	i	-6.1%	i
CCOc1ccc(OCC)c(NC(=O)C2CCCN(c3ncccn3)C2)c1 (stereo not given)	1.6e-09	1.0%	i	9.2%	i
CCC1=NC(c2ccccc2Cl)N(O)C1(C)C (stereo not given)	.	1.2%	.	-4.9%	.
CCN(CC)CC#CCOC(=O)[C@@](O)(c1ccccc1)C1CCCCC1	1.52e-08&2.4e-09	-4.4%[25.7 µM]	i	-2.9%[25.6 µM]	i
Cc1cc(C)nc(NC(=O)c2c(-c3ccccc3Cl)noc2C)n1	6.5e-09	-1.6%	i	7.5%	i
CCN(CC)C(=O)c1sc2nc(-c3ccccn3)[nH]c(=O)c2c1C	1e-09	3.5%	i	?	i
CC1(C)CC(=O)C=C(N=CC2=C(O)CC(C)(C)CC2=O)C1	5.6e-09	.	i	.	i
CCOc1ccc(-n2c(SCC(=O)Nc3ccc(OC)cc3OC)nc3c(c2=O)SCC3)cc1	1.42e-08	1.1%	i	6.6%	i
O=C(c1ccccc1)N1CCn2c(nc3ccccc32)C1	.	0.4%	.	?	.
Cn1c(CNc2nc(-c3ccccc3)cs2)nnc1SCC(=O)N1CCc2ccccc21	1e-09	-1.6%	i	5.8%	i
CCCn1c(SCC(=O)Nc2ccccc2C(=O)OC)nc2c1c(=O)n(C)c(=O)n2C	4.1e-09	1.1%	i	?	i
Cc1ccc(-c2nnn(CC(=O)N(Cc3ccco3)C(C(=O)NC(C)(C)C)c3cccs3)n2)o1 (stereo not given)	5.7e-09	-1.3%	i	?	i
CCOC(=O)Nc1cc(C)c(Cl)cc1OC	.	-1.7%	.	10.5%	.
CN(C)Cc1c(O)ccc2oc(Cc3ccccc3)cc12	3.41e-08	1.8%	i	?	i
CCCCCC(=O)OC(CN1CCCCC1)CN1CCCC1=O (stereo not given)	2.27e-08	0.9%	i	-1.5%[11.4 µM]	i
Cn1cccc1C(C(=O)NC1CCCCC1)N(C(=O)Cc1cccs1)c1ccc2c(c1)OCCO2 (stereo not given)	2.11e-08	0.9%	i	?	i
COc1cc(-c2nnc(SCC#CCO)o2)cc(OC)c1OC	3.11e-08	-0.9%	i	5.9%	i
Cc1cc(=O)n2c(c1C#N)SC1CCCCC12O (stereo not given)	2.62e-08	0.5%	i	6.3%	i
Cn1c(=O)c2c(SCC(=O)N3CCOCC3)nc(CC(C)(C)C)nc2n(C)c1=O	.	1.0%	.	2.2%	.
Cc1ccc(C(C(=O)NC2CCCCC2)N(C(=O)c2csnn2)C2CC2)o1 (stereo not given)	7.9e-09	-0.2%	i	17.8%	i
C[C@H](NC(=O)c1ccc(Cl)c(Cl)c1)c1ccc(-c2ccccc2)cc1	1e-09	0.7%[11.5 µM]	i	-5.9%[11.4 µM]	i
COCCn1nnnc1C(c1ccc2ncccc2c1)N1CCN(c2ccccc2F)CC1 (stereo not given)	1e-09	-0.1%	i	4.7%	i
N#C/C(=C/N1CCOCC1)c1ccccc1	1e-09	0.1%	i	19.7%	i
CCOC(=O)c1c(C)cccc1OCC(N)=O	2.2e-09	.	i	.	i
COc1ccc(-c2noc(Cc3ccccc3OC)n2)cc1	.	-0.6%	.	?	.

Next results.
structure	A647 fluor	AID923	Resorufin autofl	TSHR ag	A488 autofl
COc1cc(=O)[nH]c(=O)n1CC(=O)c1ccccc1	6.73e-08	.	i	.	i
C=C(C)Cn1c(CCNC(=O)C(C)C)nc2ccccc21	1e-09	0.3%	i	-0.8%	i
CCOc1ccc(NC(=O)c2nnn(CC(=O)Nc3ccccc3OC)c2N)cc1	7.2e-09	0.1%	i	-5.0%	i
O=C1CCCC(O)=C1C=NCCc1ccccc1	.	-0.7%	.	6.1%	.
O=C(CN1C(=O)CCS(=O)(=O)c2ccccc21)NCc1ccc(F)cc1	2.1e-09	0.7%	i	-1.3%	i
c1ccc2c(c1)ccc1cc3c(ccc4ccccc43)cc12	.	9.1%	.	0.7%	.
CN(CCNC(=O)C1CCN(S(=O)(=O)c2cnc[nH]2)CC1)Cc1ccccc1	1.63e-08	1.1%	i	8.6%	i
O=C(NCCC1=CCCCC1)C1CCN(S(=O)(=O)c2ccc(-n3cnnn3)cc2)CC1	2.62e-08	0.0%	i	1.2%[11.4 µM]	i
Cc1cnc(C(=O)Nc2ccc(-n3cnnn3)cc2)cn1	1e-09	2.2%	i	?	i
COc1ccc(CC(NC(C)=O)C(=O)NC2CCN(c3nc(C)cc(C)c3C#N)CC2)c(OC)c1 (stereo not given)	3.8e-08	2.9%	i	15.9%	i
COc1ccccc1CNC(=O)C(CCSC)NS(=O)(=O)c1ccc2c(c1)oc(=O)n2C (stereo not given)	2.17e-08	0.5%	i	2.3%	i
CC1(C)CC(CC(=O)O)(c2ccccc2)CCO1 (stereo not given)	.	2.2%	.	?	.
CC1(C)CC(=O)C=C(Nc2ccccc2F)C1	.	1.6%	.	10.5%	.
CCC(=O)N/C(N)=N/c1nc(C)c2cc(OC)ccc2n1	.	3.9%	.	5.4%	.
O=C(CCCCCNS(=O)(=O)c1ccc(Br)cc1)NCCN1CCOCC1	1.8e-09	1.8%	i	.	i
COc1cccc(NC(=O)Cn2c(=O)oc3ccccc32)c1	1e-09	-1.2%	i	2.3%	i
O=C(CCC(=O)Nc1nnc(C2CCCCC2)s1)NCc1cccs1	8.9e-09	-1.0%	i	13.9%	i
O=C(CN(Cc1ccc2c(c1)OCO2)C(=O)c1cnsn1)NC1CCCC1	7e-09	0.1%	i	7.9%	i
CCc1ccc2[nH]c(=O)c(C(c3nnnn3CCOC)N3CCN(c4ccccc4F)CC3)cc2c1 (stereo not given)	8e-09	1.8%	i	12.7%	i

Complete entries, looked up by structure. Order of values: A647 fluor, AID923, Resorufin autofl, TSHR ag, A488 autofl
COc1ccccc1CNC(=O)C(CCSC)NS(=O)(=O)c1ccc2c(c1)oc(=O)n2C (stereo not given) as listed: 2.17e-08, 0.5%, i, 2.3%, i
CC1(C)CC(CC(=O)O)(c2ccccc2)CCO1 (stereo not given) as listed: ., 2.2%, ., ?, .

A portion of the library; rates above refer to the full screens.
